RanGTP-Imp inh = disruptors of Ran-importin-beta complex formation – biochemical, FRET, CFP-Ran, YFP-importin-beta, homogeneous, primary screen | cell-free CFP-Ran/YFP-importin-beta FRET ratio | inhibition, % (test concentration not listed) | hit rate 1.1% among 300,000 | AID 2216;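 active means most replicates above 15%; inconclusive means exactly half above 15%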;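 further: 0% = DMSO wells and 100% = Ran loaded with GDP instead of GTP; wells of about 40 µL received 100 nL stock; the first replicate is given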
T cruzi inh = T. cruzi replication inhibition. inhibition, % (concentration not given with the values). T. cruzi beta-gal in NIH3T3, luminescence, 90 h. hit rate 1.4% among 300,000. AID 1885;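 active means mean inhibition across valid replicates above about 55%, limit read from the data; inconclusive means mean below that limit but half or more replicates reach it; inactive means mean below it, under half of replicates reach it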;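 further: signal also drops with host cell toxicity which is not excluded here; 0% = plate median of DMSO wells and 100% = zero luminescence signal; higher percent means less beta-gal luminescence so fewer parasites; stock transfer was 50 nL into about 50 µL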
Calb FLC = C. albicans growth modulation with fluconazole. C. albicans CaCi-2 (fluconazole-resistant clinical isolate) + fluconazole, Alamar Blue growth, 48 h. growth inhibition, % (test concentration not listed). hit rate 0.57% among 300,000. AID 1979;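 active means most replicates above 75%; inconclusive means exactly half above 75%; inactive means most below 75%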;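 further: all wells also contain fluconazole at 8 µg/ml as a sub-toxic cotreatment; 0% = median of DMSO wells and 100% = median of geldanamycin control wells; wells of about 8 µL received 7.5 nL stock; the first replicate is given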
Beta cell apopt = beta cell apoptosis inhibition; INS-1E cytokine-induced death, ATP luminescence, 48 h; percent of positive-control rescue, neutral wells zero; protection from apoptosis, % (no concentration beside the values); hit rate 0.8% among 300,000;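 active means all replicates at 75% or more, or half of them and the mean; inconclusive means half reach 75% but not the mean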;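 further: 0% = cytokine-treated negative control wells and 100% = positive control rescue; higher means more ATP so stronger rescue from cytokine killing; wells of about 40 µL received 100 nL stock; the first replicate is given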
ALR inh = blocks human ALR sulfhydryl oxidase activity. hit rate 3.8% among 290,000. P55789. inhibition, % (concentration not given with the values). AID 485317. purified ALR, DTT oxidation, H2O2 HRP-luminol luminescence;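 active means mean and each replicate at 75% or more; inconclusive means only one of the two met; inactive means neither met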;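 further: stock transfer was 7.5 nL into about 7.5 µL; 0% = neutral wells and 100% = wells with inactivated enzyme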
Target sequence (P55789 whole entry, looked up): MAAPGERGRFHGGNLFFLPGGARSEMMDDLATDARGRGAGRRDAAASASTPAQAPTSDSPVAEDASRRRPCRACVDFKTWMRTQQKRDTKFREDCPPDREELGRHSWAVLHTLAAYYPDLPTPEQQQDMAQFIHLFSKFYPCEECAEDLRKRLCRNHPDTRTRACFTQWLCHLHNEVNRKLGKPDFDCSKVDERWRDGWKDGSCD
AF4-AF9 inh = MLL-AF4/AF9 protein interaction inhibition; P42568; AID 651704; hit rate 0.47% among 350,000; inhibition, % at 10 µM; AlphaScreen, biotin-AF4 peptide binding to FLAG-AF9;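 active means every replicate reaching a set inhibition limit, whatever the replicate mean, cut at about 25% in these data; inconclusive means mean inhibition reaches that limit but some replicates miss it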;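 further: 0% = plate neutral control median and 100% = total signal loss; the record names both 10 and 1 µM as test concentration; the first replicate is given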
Target sequence (P42568 whole entry, looked up): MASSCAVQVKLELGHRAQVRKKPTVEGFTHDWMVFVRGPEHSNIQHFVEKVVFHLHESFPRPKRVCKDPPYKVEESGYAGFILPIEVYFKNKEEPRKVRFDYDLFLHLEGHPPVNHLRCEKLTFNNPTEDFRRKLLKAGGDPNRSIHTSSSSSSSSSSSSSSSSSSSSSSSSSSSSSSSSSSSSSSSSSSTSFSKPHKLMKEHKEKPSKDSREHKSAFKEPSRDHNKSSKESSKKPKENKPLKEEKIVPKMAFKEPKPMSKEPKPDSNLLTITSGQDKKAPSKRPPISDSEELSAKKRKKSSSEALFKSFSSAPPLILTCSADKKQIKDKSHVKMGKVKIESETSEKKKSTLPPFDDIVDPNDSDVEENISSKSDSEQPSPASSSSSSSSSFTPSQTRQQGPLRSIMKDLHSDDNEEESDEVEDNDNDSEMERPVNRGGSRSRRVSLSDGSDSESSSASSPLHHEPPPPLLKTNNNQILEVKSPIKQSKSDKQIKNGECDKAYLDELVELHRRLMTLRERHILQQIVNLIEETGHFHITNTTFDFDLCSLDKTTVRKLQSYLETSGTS
FGF22 binding = shifts melting point of recombinant human FGF22. calls only at 9.99 µM. AID 651658. recombinant FGF22 thermal shift, SYPRO orange fluorescence; percent of sucrose octasulfate shift, DMSO zero. hit rate 1.5% among 340,000;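 active means melting point raised past a set limit in the mean and every replicate; inconclusive means no clear call; three in four hits are not shown here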
Target sequence (Q9HCT0 whole entry, looked up): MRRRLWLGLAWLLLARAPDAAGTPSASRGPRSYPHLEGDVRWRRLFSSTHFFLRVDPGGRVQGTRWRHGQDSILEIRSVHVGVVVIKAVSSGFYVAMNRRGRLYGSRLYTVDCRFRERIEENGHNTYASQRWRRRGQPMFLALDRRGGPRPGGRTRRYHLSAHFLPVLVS
rRNA inh HTS = inhibits bacterial ribosomal RNA function over humanized ribosomes. E. coli WT GFP vs humanized-ribosome RFP mutants, fluorescence, 24 h; hits give low values; DMSO median 0, no signal -100. GFP signal change (wild-type ribosome), % (no concentration beside the values). hit rate 1.6% among 350,000. AID 720706;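 active means significant combined selectivity score with lowered wild-type GFP, culture density cut under 30%, mutant RFP and density less affected; inactive means any of these conditions unmet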; further: one replicate is shown; some compounds called inactive have numbers as strong as hits
rRNA inh HTS OD600 = second read-out of rRNA inh HTS, no call of its own (marks repeat the call); OD600 change, %; measured here: OD600 growth;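 optical density of the mix in the first replicate; 0 = DMSO median and -100 = no signal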
rRNA inh HTS RFP = also measured in rRNA inh HTS; calls as there; RFP signal change, %; measured here: RFP humanized mutant strains;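 first replicate; 0 = DMSO median and -100 = no signal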
Active calls of the source: *; i = inactive; ? = inconclusive; / = not tested or not shown.

SMILES	RanGTP-Imp inh	T cruzi inh	Calb FLC	Beta cell apopt	ALR inh	AF4-AF9 inh	FGF22 binding	rRNA inh HTS	rRNA inh HTS OD600	rRNA inh HTS RFP
Nc1nc(C23CC4CC(CC(C4)C2)C3)cs1	4.0	10	10	1	1	/	/	/	/	/
Cc1ccc(-c2ccc(CCC(=O)O)n2-c2cccc(C(=O)O)c2)cc1	-4.1	-4	-3	-5	32	-0.4	i	8	12	-1.3
Cc1ccc(CN(C(=O)c2csnn2)C(C(=O)NC2CCCC2)c2ccc(C)o2)cc1 (stereo not drawn)	-1.3	1	?	-7	/	/	/	/	/	/
COC(=O)CC(C(=O)Nc1cc(C(=O)OC)cc(C(=O)OC)c1)N1CCN(C)CC1 (stereo not drawn)	-1.3	-5	-13	-4	0	/	/	/	/	/
S=c1[nH]c(-c2ccccc2)cn1/N=C/c1ccccc1Br	3.5	19	-25	18	1	2.6	i	-22	-8	-5.6
O=C(NNS(=O)(=O)Cc1ccccc1)c1ccc([N+](=O)[O-])cc1	0.9	-14	-7	2	6	-1.8	i	6	8	-5.0
CC(C)C(NC(=O)c1ccccc1F)C(=O)NCCCn1ccnc1 (stereo not drawn)	/	/	/	-3	7	4.5	i	6	8	-3.2
COc1ccc(/C=C(/CC(=O)Nc2ccccc2)c2nc3ccccc3s2)cc1	-3.7	21	-27	-3	-3	3.6	i	-2	-5	0.6
CCC(c1nnnn1C(C)(C)C)N(Cc1cccs1)Cc1cc2cc(C)c(C)cc2n2nnnc12 (stereo not drawn)	2.9	56*	-4	-5	-20	/	/	/	/	/
O=C(Nc1cccc(Cl)c1)NC1CCCCC1	?	7	-2	/	2	/	/	/	/	/
CCCCOc1ccc(C2CC(=O)NC2=O)cc1 (stereo not drawn)	?	-2	-9	-1	-1	/	/	/	/	/
CCOc1ccccc1NC(=O)CSc1nnnn1C1CCCC1	-4.3	15	6	3	/	1.8	i	-8	-13	4.8
C=Cn1cc[n+](CC(=O)c2cccs2)c1	0.7	-10	14	/	9	3.0	i	2	9	-1.1
O=C(Cc1cccc2ccccc12)Nc1cc(Cl)ccc1C(=O)O	-3.1	16	30	-2	8	-4.2	/	-50	-78	-21
COc1cc2c(cc1OC)C(C(=O)N1CCN(c3ccccc3)CC1)C(c1cccs1)N(C)C2=O (stereo not drawn)	4.1	1	6	-1	1	/	/	/	/	/
O=C(O)c1ccccc1C(=O)Nc1ccccc1	2.2	-10	-3	/	-10	/	/	/	/	/
Cc1cccc(NC(=S)N(C)C2(c3ccccc3Cl)CCCCC2=O)c1 (stereo not drawn)	0.5	4	11	3	-6	/	/	/	/	/
COc1cc2c(cc1OC)CN(C(=O)CSc1ccc(F)cc1)CC2	/	/	/	-6	5	1.2	i	5	1	1.1
COc1ccc(-c2c(=O)n(OCc3nc4ccccc4[nH]3)c3ccccc3[n+]2[O-])cc1	1.7	9	-1	-12	-6	1.4	i	1	3	1.9
NC(=O)Cn1c(=O)n(-c2ccccc2)c(=O)c2oc3ccccc3c21	-5.5	4	5	-5	/	-1.0	i	7	6	4.6
COc1cc(CN2CCC(n3nccc3NC(=O)c3ccc4c(c3)OCO4)CC2)ccc1O	-5.7	-2	8	/	-39	3.8	i	1	5	0.7
CC(/C=N/NC(=S)Nc1cccc(S(=O)(=O)N(C)C)c1)c1ccccc1 (stereo not drawn)	-2.1	4	6	-4	-1	-3.2	i	-16	-17	-1.8
CCOC(=O)C1(CCOc2ccccc2)CCN(Cc2ccc3c(c2)OCCO3)CC1	2.2	28	28	3	4	7.3	i	-27	-49	26
CN1CCN(S(=O)(=O)c2ccc(NC(=O)c3ccccc3F)cc2)CC1	0.5	-22	6	0	-2	6.4	i	10	10	0.7
CC1CN(S(=O)(=O)N2CCOCC2)CCN1S(=O)(=O)N1CCOCC1 (stereo not drawn)	2.4	-11	-2	/	-18	0.3	i	5	8	3.7
O=C(c1ccccc1)C1CCN(C(=O)C2CCC(=O)N(Cc3ccccc3F)C2)CC1 (stereo not drawn)	0.3	8	2	-7	-3	-0.7	i	6	-7	1.1
COc1ccc(C(=O)C(C)OC(=O)CNC(=O)c2ccco2)cc1 (stereo not drawn)	/	/	/	-4	-21	-1.0	i	15	14	5.6
COC(=O)CNC(=O)c1cccc(Cl)c1	7.6	-14	-2	-3	-9	0.3	i	10	14	-5.0
Cc1ccc(CN2CCC(C(=O)NCCC(C)C)CC2)o1	1.5	-12	2	-1	/	/	/	/	/	/
Cn1c(=O)c(=O)n(C)c2cc(S(=O)(=O)NCCN3CCN(c4ccccc4F)CC3)ccc21	8.7	56*	-2	-6	/	-5.5	i	3	-21	-1.6
O=C(COC(=O)c1cc(Cl)ccc1O)NC(=O)NCc1ccccc1	/	/	/	-1	1	0.1	i	8	11	-1.5
O=C(CSc1nc2nc(-c3cccs3)cc(C(F)(F)F)c2c(=O)[nH]1)Nc1c(F)c(F)c(F)c(F)c1F	0.5	-8	23	14	9	1.1	i	14	16	2.6
Nc1ccc2c(c1)Nc1ccccc1CC2	1.4	-4	17	6	99*	2.5	/	6	18	14
Cc1[nH]n(-c2ccc(F)cc2)c(=O)c1/C=N/c1sc2c(c1C#N)CCCC2	-3.4	5	21	-4	-5	/	/	/	/	/
CN1C=C/C(=C\c2cc[n+](C)c3ccccc23)c2ccccc21	5.8	56*	?	/	/	56*	i	-16	-7	16
O=C(CC1C(=O)NCCN1Cc1ccc(F)cc1Cl)NC1CCCCCCC1 (stereo not drawn)	-3.9	13	-2	/	-7	1.8	i	-14	-26	0.2
CC(OC(=O)c1cccc(O)c1)C(=O)N(C)Cc1ccccc1 (stereo not drawn)	7.0	-18	0	-3	6	2.1	i	1	-2	0.1
COc1cccc(OCCOc2ccc(/C=C3/SC(=S)NC3=O)cc2)c1	-4.4	-17	9	14	4	2.3	i	-1	-8	-1.0
CC(=O)c1c(C)n([O-])c2ccc(C)cc2[n+]1=O	0.2	0	-2	8	-18	/	/	/	/	/
COc1ccc(C(C)=O)cc1COC(=O)C1CCN(C(=O)c2ccc(Cl)cc2)CC1	/	/	/	-9	-18	-0.3	i	-16	-23	1.0
CCN(CC)C(=O)CSc1nnc([C@@H](N)C(C)C)o1	-3.2	-12	1	/	1	0.8	i	26	13	2.1
CCOC(=O)N1CCN(c2c(NCCCN(CC)c3cccc(C)c3)c(=O)c2=O)CC1	0.5	2	-5	3	99*	/	/	/	/	/
COc1ccc(N/C=C\C(=O)c2ccc3ccccc3c2)cc1	-4.1	25	-16	-3	-9	-1.0	i	4	0	-1.3
C[C@H]1CN=C(Nc2ccccc2)N1CCc1ccc(F)cc1	/	/	/	-1	0	1.4	i	1	15	-15
O=C(Nc1nnc(-c2ccccc2)o1)c1cccc(N2C(=O)CCC2=O)c1	6.4	-19	100*	/	0	/	/	/	/	/
Cn1c(=O)cc(SCC(=O)Nc2ccc3c(c2)OCO3)c2ccccc21	1.5	6	-30	12	-11	/	/	/	/	/
Cc1ccccc1N(C(=O)c1csnn1)C(C(=O)NC(C)(C)C)c1ccncc1 (stereo not drawn)	0.6	-4	26	-6	-14	0.2	i	6	7	2.1
N=c1c2c3c(sc2nc2n1CCC2)CCCC3	-3.5	-6	-3	-4	-14	/	/	/	/	/
NC(=O)c1ccccc1NC(=O)Nc1cccc2ccccc12	-2.7	-19	5	-7	-74	-3.7	i	3	-2	1.5
O=S(=O)(c1ccccc1)N1CCCc2ccccc21	0.2	5	-15	-6	-10	/	/	/	/	/
COc1cccc(C(=O)NCCS(=O)(=O)NCc2ccc3c(c2)OCO3)c1	-1.0	-7	-11	3	-2	-2.8	i	4	4	-0.5
CC(/C=C1\SC(=S)N(CCC(=O)Nc2ccccc2O)C1=O)=C\c1ccccc1	0.8	-14	-1	1	-3	0.9	i	7	1	16
CC(OC(=O)COc1ccccc1Cc1ccccc1)C(=O)N(C)c1ccccc1 (stereo not drawn)	?	-4	6	-3	-7	-14	i	-10	-18	2.4
Nc1nc(N2CCCCC2)nc(N2CCCCC2)n1	1.7	-10	-3	-4	-3	/	/	/	/	/
CC1CCN(CCc2nc3cc(NC(=O)COc4ccc(Cl)cc4)ccc3n2C)CC1	-0.7	30	-3	/	0	4.4	i	-7	-10	4.3
Cc1nc(=O)c(-c2ccccc2)c(C)n1CCCO	-3.0	-10	8	-8	-16	/	/	/	/	/
CC(C)C(=O)Nc1ccc(-c2ccc3nncn3n2)cc1	4.6	-28	-6	-4	-3	0.7	/	3	4	4.9
Nc1c(C(=O)O)sc2nc(-c3ccccc3)c3c(c12)CCCC3	/	0	/	-4	2	-2.6	i	-2	-3	-1.9
CCc1ccc(-c2ccc(SCc3ccccn3)nn2)cc1	2.0	15	34	-1	4	-0.5	i	-10	-16	-11
Cc1cccnc1CCNC(=O)c1ccc(OC2CCN(Cc3ccccn3)CC2)cc1	-2.3	7	-5	0	-8	-0.3	i	10	7	-1.2

Some of the entries above, set out differently:
Under each structure – RanGTP-Imp inh, T cruzi inh, Calb FLC, Beta cell apopt, ALR inh, AF4-AF9 inh, FGF22 binding, rRNA inh HTS, rRNA inh HTS OD600, rRNA inh HTS RFP
- COc1ccc(N/C=C\C(=O)c2ccc3ccccc3c2)cc1
→ -4.1, 25, -16, -3, -9, -1.0, i, 4, 0, -1.3
- C[C@H]1CN=C(Nc2ccccc2)N1CCc1ccc(F)cc1
→ /, /, /, -1, 0, 1.4, i, 1, 15, -15

(next part)
SMILES	RanGTP-Imp inh	T cruzi inh	Calb FLC	Beta cell apopt	ALR inh	AF4-AF9 inh	FGF22 binding	rRNA inh HTS	rRNA inh HTS OD600	rRNA inh HTS RFP
Cc1ccc(C)c(Cn2nnc(C(=O)Nc3ccc4c(c3)OCCO4)c2N)c1	0.9	12	12	43	-5	-9.8	i	-3	0	3.4
O=C(COC(=O)c1ccc(F)c(S(=O)(=O)N2CCOCC2)c1)NCCc1ccc(F)cc1	/	/	/	-4	24	1.1	i	2	-4	-3.4
COCCCNC(=O)c1cc2cc([N+](=O)[O-])cc(OC)c2oc1=O	-1.6	-2	1	-3	1	-2.4	/	21	9	-0.4
COC(=O)Nc1ccc(S(=O)(=O)N2CCCC(C(=O)Nc3cccc4c3OCCO4)C2)cc1 (stereo not drawn)	-1.9	-3	9	/	2	/	/	/	/	/
O=C(NCC(=O)N1CCCC1)c1ccc(Br)o1	-4.5	-7	-15	-6	-1	0.9	i	13	12	4.1
Cc1ccccc1OC(C)C(=O)Nc1ccc2c(c1)OCCO2 (stereo not drawn)	-6.4	5	-16	10	-9	-1.4	i	-4	-13	2.2
CCC(C)[C@H](NC(=O)NCc1ccccc1Cl)C(=O)OC (stereo partly drawn)	7.3	-4	?	-8	5	/	/	/	/	/
COc1cc2c(cc1OC)C(C)N(C(=O)c1sc(-c3cnccn3)nc1C)CC2 (stereo not drawn)	-0.9	7	-5	-7	-8	3.2	i	-34*	-24*	-3.2*
Cc1ccc(S(=O)(=O)CC(CN2CCCCC2)N2CCCCC2)cc1 (stereo not drawn)	?	3	-25	/	/	-3.8	i	15	18	8.1
CC1(C)CC(=O)C2=C(C1)OC(N)=C(C#N)C21CCC2(CC1)OCCO2	-4.3	-19	8	/	-20	/	/	/	/	/
O=C(CCCOc1ccccc1)NCC1CCCO1 (stereo not drawn)	1.4	4	?	/	-4	/	/	/	/	/

Some of the compounds tested, so the mix of outcomes need not match the whole.
